# NPYLR7 agonist: mosquito NPYLR7 agonism; HEK293T NPYLR7/Galpha15, GCaMP6s calcium fluorescence; activation, % at 10 µM; hit rate 0.15% among 270,000; in the data active = activation above about 40%;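 note: 0% = vehicle and 100% = reference agonist at the receptor; some compounds past the cut are filed as inactive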
# NPYLR7 agonist max-min: also measured in NPYLR7 agonist; calls as there; activation, %; measured here: Max-Min RFU normalised activation; some inactives read as strong as hits;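 span of the calcium signal over five minutes; 0% = vehicle and 100% = native peptide agonist; compound fluorescence can raise it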
# * marks the source's active call; other numbers are inactive results; & = joins results of further samples. This is a subset, so the mix of outcomes need not match the whole.
# Start of the data: the first six records (preview)
compound	NPYLR7 agonist	NPYLR7 agonist max-min
O=[N+]([O-])c1ccc(CSc2ccc3nnc(-c4cccs4)n3n2)cc1	-1	-4
COc1cccc(OC)c1-c1cnn(Cc2ccccc2)c1	9	5
O=C(Nc1ccc(-n2nc(OCc3ccc(F)cc3)nc2-c2cccc(C(F)(F)F)c2)cc1)c1ccco1	1	9
O=C(c1ccccc1F)N1CCC(Nc2ccc3ccccc3n2)CC1	1	1
Cc1nn(CC(=O)NCCc2ccccc2)c(=O)c2c1cnn2-c1ccccc1	6	3
OCCOc1cc(Br)c(Br)cc1OCCO	1&-3	6&-4

# Main list, from the start:
compound	NPYLR7 agonist	NPYLR7 agonist max-min
O=[N+]([O-])c1ccc(CSc2ccc3nnc(-c4cccs4)n3n2)cc1	-1	-4
COc1cccc(OC)c1-c1cnn(Cc2ccccc2)c1	9	5
O=C(Nc1ccc(-n2nc(OCc3ccc(F)cc3)nc2-c2cccc(C(F)(F)F)c2)cc1)c1ccco1	1	9
O=C(c1ccccc1F)N1CCC(Nc2ccc3ccccc3n2)CC1	1	1
Cc1nn(CC(=O)NCCc2ccccc2)c(=O)c2c1cnn2-c1ccccc1	6	3
OCCOc1cc(Br)c(Br)cc1OCCO	1&-3	6&-4
CN(C)c1ccc(/C=C/c2cc(=O)oc3ccccc23)cc1	7	4
COc1ccccc1-c1cc(C(=O)NC2CCN(Cc3ccccc3)CC2)nc2cc(-c3ccc(Cl)cc3)nn12	20	26
CCOC(=O)c1ccc(NC(=O)CSc2nnc(CNC(=O)c3ccco3)n2-c2ccc(F)cc2)cc1	7	4
CCn1ncc(/C=C/C(=O)c2ccccc2)c1C	-4	-7
CN(C)C(CNc1cccc(F)c1C#N)c1cccs1 (stereo not given)	3	0
CCOC(=O)c1sc(NC(=O)c2ccc(F)c(F)c2)nc1-c1ccccc1	11	5
COc1cc2c(cc1NC(=O)CC(C)C)C(c1cccc3[nH]ccc13)CC(=O)N2 (stereo not given)	9	2
CSc1cc(C(=O)O)c(Cl)cc1Cl	5	2
COc1ccc(S(=O)(=O)NCC2c3cc(OC)c(OC)cc3CCN2C(=O)Nc2ccccc2OC)cc1 (stereo not given)	13	12
Cc1ccc(Cl)cc1Nc1ncccc1C(=O)NCCc1ccc(O)cc1	0	-4
COc1ccc(-c2c3c(=O)n(C)ccc3nc3nc(C)nn23)cc1	0	-2
O=C(Nc1nnc(-c2ccc(Cl)cc2)s1)C1CCCN1C(=O)Nc1ccccc1Br (stereo not given)	1	8
COC(=O)c1cc2n(n1)CCCN(C(=O)CCOc1ccccc1)C2	8	-5
O=c1c2cnc3nc(C(F)(F)F)nn3c2ccn1-c1ccccc1F	3	7

# 3 successive compounds from above, for reference:
compound	NPYLR7 agonist	NPYLR7 agonist max-min
OCCOc1cc(Br)c(Br)cc1OCCO	1&-3	6&-4
CN(C)c1ccc(/C=C/c2cc(=O)oc3ccccc23)cc1	7	4
COc1ccccc1-c1cc(C(=O)NC2CCN(Cc3ccccc3)CC2)nc2cc(-c3ccc(Cl)cc3)nn12	20	26

# (cont.)
compound	NPYLR7 agonist	NPYLR7 agonist max-min
O=C(Nc1cccc(C2SCC(=O)N2c2ccc(C(F)(F)F)cc2)c1)c1cccc([N+](=O)[O-])c1 (stereo not given)	0	6
CCOC(=O)C1CCN(C(=O)c2coc(CN(Cc3ccc(F)cc3)Cc3cccc(Oc4ccccc4)c3)n2)CC1	22	16
O=C(C1CCOC1)N1CCC(n2nc(-c3ccccc3)cc2-c2ccccc2)CC1 (stereo not given)	26	24
CCOc1ccc(NC(=O)N2CCn3nc(C(=O)OC)cc3C2)cc1	4	-8
CC1CCN(C(=O)CN2C(=O)NC3(CCC(C)CC3)C2=O)CC1 (stereo not given)	0	3
COc1ccccc1-c1cc(C(=O)O)c2c(C)nn(CCC#N)c2n1	12	6
O=C1C(=Cc2cn(-c3ccccc3)nc2-c2cccs2)SC(=S)N1C1CCS(=O)(=O)C1 (stereo not given)	1	-3
COCCn1c(C)cc(O)c(C(c2ccccc2)N2CCN(c3ccccn3)CC2)c1=O (stereo not given)	9	1
COc1ccccc1CNC(=O)C1(C)CCN1C(=O)c1ccc(C(C)(C)C)cc1 (stereo not given)	6	4
CCN1CCN(C2=C(c3c(COC)[nH]n(-c4ccc(Cl)cc4)c3=O)C(=O)N(CC(C)C)C2=O)CC1	5	6
CCCc1cc(Nc2ccccc2)n2nc3nc(C)cc(C)c3c2n1	-1	43
COc1ccc(NC(=O)COC(=O)c2csc3c2CCCC3)cc1Cl	6	4
Cc1nc(Sc2nnnn2C2CCCC2)c2c(C)c(C)sc2n1	37	36
Cc1cc(C)cc(NC(=O)c2c(N)n(/N=C\c3ccncc3)c3nc4ccccc4nc23)c1	4	-4
Cc1cc(=O)oc(C)c1C(=O)OCc1ncc(-c2ccc(Cl)cc2)o1	3	1
CN(C)C(CNc1ccc2ccc(F)cc2n1)c1cnn(C)c1 (stereo not given)	1	0
O=c1nc(Nc2c(F)c(F)cc(F)c2F)sc2ncccc12	-2	0
CC(C)(C)c1cc(C(=O)CSc2nnc(Nc3ccccc3)n2-c2ccccc2)cc(C(C)(C)C)c1O	10	5
O=C(Cn1cnnn1)Nc1ccc(C(=O)O)cc1O	-5	-10
Cc1n[nH]c(C)c1CCCN(C)C(=O)c1ccc(Cl)cn1	3	2
Cc1cc(C)n(CC(=O)NNC(=O)C=Cc2ccc(Br)o2)n1	7	6
O=c1[nH]c(=O)n(-c2ncnc3c2cnn3-c2ccccc2)cc1Cl	-5	-7
COC(=O)c1cn(CCc2ccccc2)nc1S(=O)(=O)N1CCC(C)CC1	-8	-9
COc1ccc(CCN(C)c2cc(C(C)(C)C)nc(SCc3ccc(C(=O)NCCc4ccccn4)cc3)n2)cc1OC	-4	-4
Cc1cc(=O)c2cccc(Cl)c2[nH]1	-2	-1
COc1ccc(C=Nn2c(SC)nnc(C(C)(C)C)c2=O)cc1OC	-9	-13
CC(=O)Oc1ccc(C2OC(=O)C3(CCCCC3)C(=O)C2(C)C)cc1 (stereo not given)	0	0
Cc1[nH]n(-c2nc(-c3ccccc3)cs2)c(=O)c1N=Nc1ccccc1Cl	-5	-7
O=C(COc1cccc2c(=O)[nH]ccc12)c1ccccc1	-13	-15
Cc1cc(NC(=O)c2ccnn2C)n(-c2nc3c(F)cccc3s2)n1	-10	-14
NC(=O)c1cc(Cl)ccc1OCc1csc(-c2ccco2)n1	4	3
CCS(=O)(=O)NCCc1csc(-c2ccc(F)cc2)n1	6	8
O=C(Nc1cc(-c2ccccc2)ns1)C1CCS(=O)(=O)C1 (stereo not given)	-1	-4
COc1ccc(CN2C(=O)N(C)C3(CCN(Cc4ccc(-c5ccccc5Cl)o4)CC3)C2=O)cc1	3	-4
CC(C)c1c(C(=O)NC2CC2)cnn1-c1ccccc1	-4	7
Cc1ccc(-c2cc(C(=O)N3CCN(C(=O)c4ccccc4O)CC3)on2)cc1	-6	-6
C=CCC(CC=C)(NC(=O)CCC(=O)OC)c1ccccc1	4	-5
Cc1sc(=O)n(CCC(=O)Nc2ncc(Cl)s2)c1C	-5	-7
NC(=O)C1CCN(C(=O)Cc2csc(NC(=O)c3ccc[nH]c3=O)n2)CC1	13	17
CC(C)(C)c1ccc(C(O)c2ncc(-c3ccccc3F)[nH]2)cc1 (stereo not given)	0	0
Cc1ccc(C(C)CCN2CCC(n3nccc3NC(=O)C3CCCC3)CC2)o1 (stereo not given)	12	7
CN(CCc1cnn(C)c1)Cc1cn(Cc2ccccc2)nc1-c1cc2ccccc2o1	-5	-9
O=C(CS(=O)(=O)Cc1cccc(F)c1)Nc1ccc(F)cc1F	2	-2
CC1(C)Cc2cccc(C3CC(=O)Nc4c3cnn4Cc3cccnc3)c2O1 (stereo not given)	7	4
Cc1cc(S(=O)(=O)NCc2ccc3c(c2)OCO3)c(C)cc1Br	-11	-10
COc1ccc(CCNC(=O)c2cc(Br)ccc2NS(=O)(=O)c2ccc(C(C)(C)C)cc2)cc1	20	13
Cc1cnc(CN(C)C(=O)c2cn(CC3COc4ccccc4O3)nn2)[nH]1 (stereo not given)	-3	-6
Cc1ncsc1CCn1ccnc1-c1ccc(CO)o1	8	1
NC(=O)CN(C(=O)c1cc2ccccc2s1)c1ccccc1	13	7
COc1c(F)cc(-c2cc(NCCO)nc3[nH]ccc23)cc1F	1	-1

# (more compounds)
compound	NPYLR7 agonist	NPYLR7 agonist max-min
O=C(c1cccc(SC(F)F)c1)N1CCc2c([nH]c3ccccc23)C1c1ccc(C(F)(F)F)cc1 (stereo not given)	-6	-13
CC(=O)c1cc(Cl)ccc1OCC(=O)Nc1ccc(Cl)c(S(=O)(=O)N2CCOCC2)c1	0	17
CC(C)(C)c1ccc(C(=O)Nc2n[nH]c(C(F)(F)F)n2)cc1	-22	-20
CCCCC(Nc1nc(C)nc2c1cnn2C)c1cccnc1 (stereo not given)	12	9
c1cnc(N2CCCN(Cc3cc4n(n3)CCCNC4)CC2)nc1	6	-1
CC(=O)N1CCC(C(=O)Nc2ccc3nc(Cc4ccccc4)nn3c2)CC1	25	15
O=C1NCCCCC1NCc1ccc(OCc2c(F)cccc2Cl)cc1 (stereo not given)	3	0
CC(NC(=O)Nc1cccnc1N1CCCC1)c1ccn(C)c1 (stereo not given)	9	3
COc1ccc(-c2cc(C(=O)N3CCC(n4c(=O)[nH]c5ccccc54)CC3)c(C)n2-c2ccc(F)cc2F)cc1	13	17
C/C(=C/C(=O)NCCc1nncn1C)c1ccccc1Cl	0	1
Cc1nn(-c2ccccc2)c(Cl)c1C(=O)Nc1cccc(C(F)(F)F)c1	-2	-3
COCc1cc(C)nc(N/N=C\c2cccc(OCc3ccc(Cl)cc3Cl)c2)c1C#N	-5	1
Cc1ccsc1CN(CCc1c[nH]c2ccccc12)Cc1nc(C(=O)NCCN2CCOCC2)co1	23	31
C=CCNC(=S)NS(=O)(=O)c1ccc(F)cc1	2	0
Cc1ccc(Oc2cnn(-c3ccc(F)cc3)c(=O)c2Nc2cccc(C(=O)NCc3ccccn3)c2)cc1	13	15
Cc1nc2n(n1)C(=O)C(C(c1ccccc1Cl)N1CCC3(CC1)OCCO3)S2 (stereo not given)	0	-2
CCCc1nn(-c2ccccc2Cl)c(C)c1C(=O)O	11	16
O=C(C1CCCO1)N1CCN(C(=S)NCc2ccc3c(c2)OCO3)CC1 (stereo not given)	5	5
CCOC(=O)N1CCC(C(=O)O)CC1	12	9
CCOc1ccc(NC(=S)NCc2ccccc2)cc1	8	10
COC(=O)C(C)n1c(=O)c2c(nc3n(-c4ccc(C)c(C)c4)c(C)cn23)n(C)c1=O (stereo not given)	6	1
COc1ccc(-n2c(CCN)n[nH]c2=O)cc1OC	8	8
Cc1cc(Br)c(NC(=O)CSc2nc(=O)[nH]n2C)c(Br)c1	4	5
Nn1c(SCc2ccc(Cl)cc2Cl)nncc1=O	-17	-22
O=C(NCCc1ccccc1)c1cc(-c2ccccc2)n(C2CCS(=O)(=O)C2)n1 (stereo not given)	7	3
C=CCNC(=O)C(NC(=O)c1cccs1)C1CCN(C(=O)C2CCCC2)CC1 (stereo not given)	11	14
CC1(C(=O)NS(=O)(=O)c2cccc(OC(F)F)c2)CCN1C(=O)Cc1ccccc1 (stereo not given)	3	4
C=CCCC(O)CN(Cc1ccc(C)o1)CC1CCCO1 (stereo not given)	14	23
Cc1ccc(Nc2cc3[se]c4ccccc4[nH]c3c3c(=O)c4ccccc4c(=O)c23)cc1	9	11
CN1CCN(C(=O)c2ccc3[nH]c4c(c3c2)CSCC4)CC1C(=O)O (stereo not given)	4	3
O=C(CCCCCn1c(=S)[nH]c2ccccc2c1=O)NCc1ccc2c(c1)OCO2	4	0
Cc1nc2ncccn2c1C(=O)N1[C@@H]2CC[C@H]1CNC(=O)C2	7	4
O=C(CCn1ccc(=O)[nH]c1=O)NCc1cc(-c2cccs2)on1	3	1
COC(=O)c1ccc(Cn2c(C)c(C(=O)NCc3cccc(C)c3)sc2=O)o1	5	0
O=C(CC1S/C(=N/N=C\c2cccs2)NC1=O)Nc1ccc(C(=O)O)cc1 (stereo not given)	3	4
C=CCn1c(=O)c(C(=O)Nc2ccccc2)c(O)c2ccccc21	-5	-9
Cc1ccc(NC(=O)Cc2csc(NC(=O)CN(C(=O)c3ccc(C)cc3)C(C)C)n2)cc1	12	17
CN(C(=O)c1ccc(F)nc1)C1CCCCCCC1	8	5
COc1ccc(-c2csc(=Nc3cc(OC)cc(OC)c3)n2NC(=O)CNc2ncc(C(F)(F)F)cc2Cl)cc1	1	-3
CCOc1ccc(-c2nc(COC(=O)c3nnn(-c4ccc(F)cc4)c3C)c(C)o2)cc1	0	-8
Cc1csc(NC(=O)CSc2nc(=O)n(CCCN3CCOCC3)c3c2CCC3)n1	-1	-6
CC1(C(=O)Nc2ccc(F)cc2F)CCN1C(=O)C1CCCCC1 (stereo not given)	3	2
O=C(CSc1nnc2[nH]c(=O)cc(-c3ccccc3)n12)N1CCCCC1	-5	-1
COCCNC(=O)c1ccc(OC2CCN(C(=O)C3CCCO3)CC2)c(Cl)c1 (stereo not given)	5	2
O=C(CC(c1ccc(O)cc1)c1ccccc1O)NC1CCCCCC1 (stereo not given)	8	1
CCN(CC)C(=O)c1sc(NC(=O)c2ccoc2C)c(C#N)c1C	-3	-6
CCN(C(=O)Nc1cccc(Cl)c1Cl)C(C)c1nc2ccccc2c(=O)n1-c1ccc(C)cc1C (stereo not given)	21	21
Cc1nnc(SCCC(=O)N2CCN3CCNC(=O)C3C2)s1 (stereo not given)	-5	-5

# Screening results: PubChem, Fisher Drug Discovery Resource Center
